GLA inh pH 4.5: qHTS Assay for Inhibitors of Human alpha-Galactosidase at pH 4.5; Alpha-galactosidase A (Homo sapiens), P06280; purified enzyme, 4-MU-alpha-Gal fluorescence, pH 4.5; activity change, negative = inhibition, % at 105 µM; 230,000 tested, under 10 active; inconclusive = small, poorly fitted or top-dose-only inhibition, or a rising curve; inactive = flat fitted curve, though single readings scatter; no compound was filed as active;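 note: 0% = full activity with enzyme and -100% = basal without enzyme; dose as in the result columns while the protocol names 77 µM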
Rango dissoc inh: qHTS Assay for Inhibitors of RanGTP induced Rango (Ran-regulated importin-beta cargo) - Importin beta complex dissociation | Snurportin-1 (Homo sapiens) + GTP-binding nuclear protein Ran (Homo sapiens) + Importin … | Biochemical FRET Rango-importin beta, RanGTP-induced dissociation | Potency, µM (doses to about 46.1 µM), without a hit: top-dose activity change, negative = inhibition | actives 0.071% (n = 340,000) | AID 540253, 2011; active means falling FRET ratio curve, often poorly fitted, with flat reads before Ran was added; inconclusive means other falling curves, or compound fluorescence or quenching; inactive means flat or rising ratio curve;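 note: potency is the fitted concentration of half-maximal effect; % of control where 0% means no effect; nearly all actives have a fitted effect of over 45% in size; -100% = wells without RanGTP and RCC1; the record marks most hits as doubtful in a second field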
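Quantitative HTS using a FRET biosensor: 0.1 uM Rango, 0.25 uM importin beta, 0.6 uM Ran, 2 mM GTP, 0.2 uM RCC1 final, PBS with DTT, Tween-20 and BSA. Post-read taken 45 min after Ran addition.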
miR-21 reporter: qHTS Assay for Modulators of miRNAs and/orActivators of miR-21; HeLa miR-21 FLuc reporter, luciferase, 48 h; AID 2288, 2010; 340,000 tested, under 10 active; Potency, µM (titrated, usually from 38.3 µM), inactives show at the top dose reporter change, positive = more light; active = well fitted rising curve with a large enough effect; inconclusive = small, poorly fitted or top-dose-only effect; inactive = no such curve, though single readings can be large or run the other way;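 note: % of control where 0% means no effect; miR-21 action dims this reporter so a rising signal means less miR-21 action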
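HeLa cells endogenously expressing miR-21, stably carrying CMV-driven firefly luciferase with a downstream miR-21 binding site, 2000 cells/well. Titrations up to approximately 40 uM, 48 hours; luciferase luminescence read.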
Rango-impB inh: qHTS Assay for Inhibitors of Rango (Ran-regulated importin-beta cargo) - Importin beta complex formation | actives 0.031% (n = 340,000) | AID 540263, 2011 | Rango CFP/YFP FRET sensor + importin beta, 45 min | Potency, µM (titrated, usually from 92.2 µM), inactives show at the highest dose inhibition of complex formation | Importin subunit beta-1 (Homo sapiens), Q14974; active = rising FRET ratio curve, often small or poorly fitted; inconclusive = mostly compound fluorescence or quenching in the first reads; inactive = flat curves in all reads;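 note: potency is the fitted concentration of half-maximal effect; 0% = DMSO wells and 100% = buffer wells lacking importin beta; nearly all actives have a fitted effect of over 15% in size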
Target sequence (Q14974 whole entry, looked up): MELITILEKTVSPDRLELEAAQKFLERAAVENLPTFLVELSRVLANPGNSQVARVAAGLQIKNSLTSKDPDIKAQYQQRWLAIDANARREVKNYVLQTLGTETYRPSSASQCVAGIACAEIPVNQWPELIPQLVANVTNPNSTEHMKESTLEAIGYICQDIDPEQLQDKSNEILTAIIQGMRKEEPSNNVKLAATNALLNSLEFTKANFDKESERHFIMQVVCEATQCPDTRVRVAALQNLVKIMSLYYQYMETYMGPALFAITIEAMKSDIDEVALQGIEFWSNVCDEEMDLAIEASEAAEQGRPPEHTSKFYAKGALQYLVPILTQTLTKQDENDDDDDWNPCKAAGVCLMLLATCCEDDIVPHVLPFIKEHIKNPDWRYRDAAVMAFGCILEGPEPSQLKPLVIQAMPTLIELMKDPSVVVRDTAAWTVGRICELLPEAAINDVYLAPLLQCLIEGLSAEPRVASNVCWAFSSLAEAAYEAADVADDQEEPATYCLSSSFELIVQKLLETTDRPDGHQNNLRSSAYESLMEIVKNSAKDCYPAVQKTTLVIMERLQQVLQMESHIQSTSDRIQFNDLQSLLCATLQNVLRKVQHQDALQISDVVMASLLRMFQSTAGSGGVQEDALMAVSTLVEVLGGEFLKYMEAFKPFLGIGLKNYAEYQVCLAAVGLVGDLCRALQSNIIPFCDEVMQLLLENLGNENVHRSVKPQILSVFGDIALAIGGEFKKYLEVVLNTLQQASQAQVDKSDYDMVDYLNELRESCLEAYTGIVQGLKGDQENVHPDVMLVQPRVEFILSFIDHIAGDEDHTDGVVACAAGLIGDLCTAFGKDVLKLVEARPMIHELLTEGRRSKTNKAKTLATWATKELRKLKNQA
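Inhibition scored from the CFP 486 nm/YFP 530 nm FRET ratio 45 min after adding 0.125 microM importin beta to 50 nM Rango biosensor preincubated 5 min with compound (room temperature, PBS with DTT, Tween-20, BSA). No-importin wells as positive control.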
* marks the source's active call; other numbers are inactive results; & = joins results of further samples. Only part of the results is shown; the hit share may differ from the screen's.

CCN(Cc1ccccc1)C(=O)CCc1nc(CN2CCN(C(=O)c3ccc([N+](=O)[O-])cc3)CC2)no1 was read as Rango dissoc inh 2.1%, miR-21 reporter 4.1% and Rango-impB inh -1.8%.
Cc1ccc(C(=O)c2ccccc2C(=O)O)c(O)c1 was read as GLA inh pH 4.5 -12.4, Rango dissoc inh 10.0%, miR-21 reporter -1.5% and Rango-impB inh -3.4%.
For COc1ccc(C2=NN(C(=O)CSc3nc4ccccc4s3)C(c3ccc(OC)cc3)C2)cc1 (stereo unspecified) the results were GLA inh pH 4.5 1.4, Rango dissoc inh 1.7%, miR-21 reporter -0.4% and Rango-impB inh -2.7%.
For Cc1cc(C)c(C#N)c(SCC(=O)OC2CCCCC2)n1 the results were GLA inh pH 4.5 -6.4, Rango dissoc inh 0.2%, miR-21 reporter -14.4% and Rango-impB inh -2.1%.
For NC(=O)C1CCN(C(=O)c2ccc(NS(=O)(=O)c3ccc(F)c(F)c3)cc2)CC1 the results were Rango dissoc inh 2.2% and Rango-impB inh 1.7%.
Screening CSCCC(NS(=O)(=O)c1cccc(C(F)(F)F)c1)C(=O)N(C)CCOc1ccc(Cl)cc1 (stereo unspecified) returned Rango dissoc inh 6.6% and Rango-impB inh 2.1%.
For CCO[C@H]1OC(C(=O)N2CCN(Cc3ccccc3)CC2)=C[C@@H](c2coc3ccccc3c2=O)[C@@H]1CCCO the results were GLA inh pH 4.5 -1.9, Rango dissoc inh -9.4%, miR-21 reporter 13.6% and Rango-impB inh 2.1%.
Screening Cc1c(NC(=O)CSc2ccc3c(c2)OCCO3)c(=O)n(-c2ccccc2)n1C returned GLA inh pH 4.5 5.1, Rango dissoc inh 6.2%, miR-21 reporter 0.0% and Rango-impB inh 4.2%.
Screening CCOC(=O)C1CCN(S(=O)(=O)c2cc(F)ccc2OC)CC1 returned GLA inh pH 4.5 2.9, Rango dissoc inh -5.2%, miR-21 reporter -12.3% and Rango-impB inh 1.5%.
`CSCCC(NC(=O)c1ccccc1)C(=O)Nc1ccc(C)cc1` (stereo unspecified) gave GLA inh pH 4.5 -4.5, Rango dissoc inh 9.6%, miR-21 reporter -18.8% and Rango-impB inh 1.9%.
COc1cc(NC(=S)NN2CCN(C)CC2)cc(OC)c1OC was read as GLA inh pH 4.5 -1.9, Rango dissoc inh -6.4%, miR-21 reporter -1.4% and Rango-impB inh -1.6%.
`NC(=O)[C@@H]1CCCN1C(=O)c1ccc2nc(Cc3cccc(Cl)c3)oc2c1` gave Rango dissoc inh inconclusive, miR-21 reporter -3.9% and Rango-impB inh 0.0%.
`CCOC(=O)CC1(NC(=O)C2CCC(=O)N(Cc3ccccc3OC)C2)CCCCC1` (stereo unspecified) gave Rango dissoc inh -7.3%, miR-21 reporter -9.9% and Rango-impB inh -1.2%.
Screening COc1cccc(/C=C/C(=O)Nc2ccc3c(c2)OCCO3)c1OC returned GLA inh pH 4.5 -0.2, Rango dissoc inh inconclusive, miR-21 reporter 3.0% and Rango-impB inh -0.1%.
O=C(CCCn1cnc([N+](=O)[O-])n1)Nc1cccc(Cl)c1Cl was read as GLA inh pH 4.5 -0.6, Rango dissoc inh -0.5%, miR-21 reporter -13.7% and Rango-impB inh -1.4%.
c1csc(C(c2nnnn2C2CCCCC2)N2CCCC3(CCCCC3)C2)c1 (stereo unspecified) was read as GLA inh pH 4.5 -7.1, Rango dissoc inh -7.4%, miR-21 reporter -5.1% and Rango-impB inh -1.5%.
`COc1ccc(N2C(=O)CC(c3cc(OC)c(OC)c(OC)c3)CC2=O)cc1` gave GLA inh pH 4.5 0.2, Rango dissoc inh 1.3%, miR-21 reporter 1.0% and Rango-impB inh 2.8%.
Screening CCOc1ccc(Cn2c(C)nc([N+](=O)[O-])c2SCC(O)CCl)cc1[N+](=O)[O-] (stereo unspecified) returned GLA inh pH 4.5 -9.5, Rango dissoc inh 2.0%, miR-21 reporter -21.0% and Rango-impB inh -1.5%.
C[C@@H](NC(=O)/C(C#N)=C/c1ccc(O)c(O)c1)c1ccccc1 was read as GLA inh pH 4.5 -22.1&-4.5, Rango dissoc inh inconclusive and Rango-impB inh inconclusive.
For COc1ccc(C2=CC(c3c(C)nn(-c4ccccc4)c3Cl)n3nnnc3N2)cc1OC (stereo unspecified) the results were GLA inh pH 4.5 -0.1, Rango dissoc inh inconclusive, miR-21 reporter -9.1% and Rango-impB inh inconclusive.
`N#Cc1cc2ccccc2nc1SCC(=O)NC1CC1` gave Rango dissoc inh 0.2%, miR-21 reporter 5.3% and Rango-impB inh -2.5%.
`CSC(=S)NCc1cccnc1` gave GLA inh pH 4.5 6.1, Rango dissoc inh 4.0%, miR-21 reporter inconclusive and Rango-impB inh 0.1%.
For CCn1c(/C(C#N)=C(\O)CCc2ccccc2)nc2ccccc21 the results were GLA inh pH 4.5 -5.3, Rango dissoc inh -26.6%, miR-21 reporter -5.6% and Rango-impB inh inconclusive.
For CCn1c(N2CCN(CC(=O)c3c(C)n(C)c4ccccc34)CC2)nc2c1c(=O)[nH]c(=O)n2C the results were GLA inh pH 4.5 -0.3, Rango dissoc inh -1.5%, miR-21 reporter -11.6% and Rango-impB inh 2.5%.
`CCC1CCCCN1S(=O)(=O)c1ccccc1[N+](=O)[O-]` (stereo unspecified) gave GLA inh pH 4.5 -7.7, Rango dissoc inh -0.1%, miR-21 reporter 4.6% and Rango-impB inh -0.3%.
`CCCCCC(=O)Nc1cccc(C2=NOC3(C2)C[C@@H](C(N)=O)N(C(=O)c2cc([N+](=O)[O-])cc([N+](=O)[O-])c2)C3)c1` (stereo partly specified) gave GLA inh pH 4.5 -2.3, Rango dissoc inh 0.7%, miR-21 reporter 2.1% and Rango-impB inh 0.0%.
Screening Cc1ccc(N/N=C(\C#N)C(=N)N2CCOCC2)cc1 returned GLA inh pH 4.5 -17.2, Rango dissoc inh -8.0%, miR-21 reporter -69.2% and Rango-impB inh 1.3%.
For N#CC1=C(SCc2ccccc2Cl)NC(=O)C(C(N)=O)C1 (stereo unspecified) the results were GLA inh pH 4.5 -0.7, Rango dissoc inh -15.5%, miR-21 reporter -1.2% and Rango-impB inh 3.1%.
Screening CCCCn1c(SCC2CCCCO2)nc2cc(S(N)(=O)=O)ccc21 (stereo unspecified) returned GLA inh pH 4.5 3.5, Rango dissoc inh 1.4%, miR-21 reporter -0.2% and Rango-impB inh 1.1%.
`Cc1c(OCC(=O)N(C)c2ccccc2)ccc2c3c(c(=O)oc12)CCC3` gave Rango dissoc inh -8.3%, miR-21 reporter -27.7% and Rango-impB inh -0.6%.
Cc1cc(Sc2nnc(N)s2)c2ccccc2n1 was read as GLA inh pH 4.5 -7.4, Rango dissoc inh -0.6%, miR-21 reporter inconclusive and Rango-impB inh -4.0%.
Cc1ccc(OC(=O)c2cncc(Br)c2)c(C)c1 was read as Rango dissoc inh -27.8%, miR-21 reporter 0.8% and Rango-impB inh inconclusive.
`CCCCS(=O)(=O)N1CCCC(C(=O)NCCc2ccccc2)C1` (stereo unspecified) gave Rango dissoc inh 5.6%, miR-21 reporter -5.6% and Rango-impB inh 5.0%.
CN(CC(=O)Nc1ccc(Cl)cc1)C(=O)c1ccc(NS(=O)(=O)c2ccc3[nH]c(=O)[nH]c3c2)cc1 was read as Rango dissoc inh -13.5% and Rango-impB inh 5.7%.
`CN(NC(=O)c1ccccc1F)c1ccc([N+](=O)[O-])cn1` gave GLA inh pH 4.5 -7.4, Rango dissoc inh 0.4%, miR-21 reporter -2.3% and Rango-impB inh -1.1%.
`Cc1cc(NC(=O)CSc2nc(=O)n3cccc(C)c3n2)no1` gave Rango dissoc inh 4.7% and Rango-impB inh 9.5%.
Screening CCCOC(=O)c1ccc(Cl)c(NC(=O)c2ccc(-c3ccccc3)cc2)c1 returned GLA inh pH 4.5 1.3, Rango dissoc inh -12.0%, miR-21 reporter -2.8% and Rango-impB inh -0.9%.
Screening COC(=O)CN1C(=O)[C@H]2[C@@H](C3CC3)N3C(=O)CN(Cc4ccccn4)C(=O)[C@@]3(Cc3ccccc3)[C@H]2C1=O returned Rango dissoc inh -7.2%, miR-21 reporter 0.8% and Rango-impB inh 0.9%.
Screening COc1cc(CCC(=O)OCC(=O)NCc2ccc(Cl)cc2)cc(OC)c1OC returned GLA inh pH 4.5 -2.4, Rango dissoc inh -4.6%, miR-21 reporter -2.4% and Rango-impB inh -0.3%.
For O=C(N1CCN(c2ccccc2)CC1)C(F)(F)C(F)(F)F the results were GLA inh pH 4.5 2.7, Rango dissoc inh inconclusive, miR-21 reporter -0.4% and Rango-impB inh -1.5%.

Quoted at random: two compounds from above
For COc1ccc(C2=CC(c3c(C)nn(-c4ccccc4)c3Cl)n3nnnc3N2)cc1OC (stereo unspecified) the results were GLA inh pH 4.5 -0.1, Rango dissoc inh inconclusive, miR-21 reporter -9.1% and Rango-impB inh inconclusive.
`COc1ccc(N2C(=O)CC(c3cc(OC)c(OC)c(OC)c3)CC2=O)cc1` gave GLA inh pH 4.5 0.2, Rango dissoc inh 1.3%, miR-21 reporter 1.0% and Rango-impB inh 2.8%.

Later entries:
Screening Cc1cc(C(=O)CSc2nn(-c3ccccc3)c(=S)s2)c(C)n1Cc1ccco1 returned GLA inh pH 4.5 -5.7, Rango dissoc inh -15.6%, miR-21 reporter -7.4% and Rango-impB inh -3.2%.
`CC1(C(=O)NC23CC4CC(CC(C4)C2)C3)CC1(Cl)Cl` (stereo unspecified) gave GLA inh pH 4.5 -13.1, Rango dissoc inh 0.5%, miR-21 reporter -1.2% and Rango-impB inh 2.1%.
COc1ccc(/C=C2\CCCc3c2nc2ccc(C)cc2c3C(=O)O)cc1O was read as GLA inh pH 4.5 -5.5, Rango dissoc inh -11.7%, miR-21 reporter 1.1% and Rango-impB inh inconclusive.
`CCOn1c(=O)c(C)[n+]([O-])c2ccccc21` gave GLA inh pH 4.5 0.6, Rango dissoc inh -1.2%, miR-21 reporter -2.3% and Rango-impB inh -0.6%.
COc1ccc(CCNC(=O)C(=O)c2c(C)n(C)c3ccccc23)cc1OC was read as Rango dissoc inh 9.0%, miR-21 reporter -26.7% and Rango-impB inh -1.5%.
`Cc1nc2nc(-c3ccccc3)[nH]n2c(=O)c1C` gave GLA inh pH 4.5 13.9, Rango dissoc inh 6.5%, miR-21 reporter -20.0% and Rango-impB inh 6.0%.
Screening Nc1nc(SCC(=O)Nc2ccccc2Sc2ccccc2)n[nH]1 returned GLA inh pH 4.5 4.8, Rango dissoc inh -2.3%, miR-21 reporter 12.9% and Rango-impB inh 2.9%.
`CCOC(=O)C1=C(CSc2nc(CC)c(C)cc2C#N)OC(N)=C(C#N)C1c1ccccc1` (stereo unspecified) gave GLA inh pH 4.5 -1.1, Rango dissoc inh inconclusive, miR-21 reporter -7.6% and Rango-impB inh inconclusive.
`Cc1cc(C)c(NC(=O)CSc2nnc(-c3ccco3)n2N)c(C)c1` gave GLA inh pH 4.5 0.2, Rango dissoc inh -4.2%, miR-21 reporter 0.5% and Rango-impB inh -0.2%.
O=C(COC(=O)/C=C/c1ccc(F)cc1)NCC1CCCO1 (stereo unspecified) was read as Rango dissoc inh 7.9% and Rango-impB inh 4.2%.
For Cn1c(SCc2ccccc2)nc2c1c(=O)[nH]c(=O)n2C the results were Rango dissoc inh 22.5%, miR-21 reporter -10.1% and Rango-impB inh -3.0%.
Screening COc1cc(NC(=O)CSc2nnc3ccccn23)cc(OC)c1 returned Rango dissoc inh -6.9% and Rango-impB inh -4.3%.
`CCOC(=O)c1ccc(NC(=O)c2ccc3c(c2)C(=O)N(CC2CCCO2)C3=O)cc1` (stereo unspecified) gave Rango dissoc inh -8.2%, miR-21 reporter 6.5% and Rango-impB inh 0.0%.
`COc1ccccc1N1CCN(S(=O)(=O)c2ccc(-c3ccc(=O)[nH]n3)o2)CC1` gave Rango dissoc inh 3.4%, miR-21 reporter 0.5% and Rango-impB inh -2.8%.
`COCCCn1c(C(=O)N2CCOCC2)cc2c(=O)n3ccccc3nc21` gave Rango dissoc inh -24.7%, miR-21 reporter -2.1% and Rango-impB inh inconclusive.
